Vaccinia stage – blocks a specific stage of Vaccinia orthopoxvirus infection, primary screen, cell-based, single point | Vaccinia-infected cells, mCherry/Venus stage reporter fluorescence; stronger effect = lower value; some inactives read as strong as hits | activity change (mCherry), % (concentration not given with the values) | 89,000 tested, 0.01% active;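 active = mCherry past -33% and 40 or more points under the early reporter, replicates agreeing; inconclusive = past -33% without that gap or agreement; tested in A549 cells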;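 also: scaled between vehicle wells and reference inhibitor wells; 23 nL library stock went into each well; one replicate is shown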
Vaccinia stage Venus – second read-out of Vaccinia stage, no call of its own (marks repeat the call); activity change (Venus), %; measured here: Venus reporter, other viral stage;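 negative = less Venus signal; first of two replicates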
* marks the source's active call; other numbers are inactive results. A portion of the library. The share of hits here may be higher or lower than overall.

For O=C(Cc1ccccn1)NCC[C@H]1CC[C@@H](NC(=O)CN2CCOCC2)[C@H](CO)O1 the results were Vaccinia stage -2 and Vaccinia stage Venus 0.
Screening CC(=O)N(C)C[C@H]1Oc2cc(C#CC(C)C)ccc2S(=O)(=O)N([C@@H](C)CO)C[C@H]1C returned Vaccinia stage 7 and Vaccinia stage Venus 5.
Screening CCC(=O)N1[C@@H](CO)[C@@H](c2ccccc2)C12CN(Cc1nccs1)C2 returned Vaccinia stage 6 and Vaccinia stage Venus 7.
`C/C=C/c1ccc([C@H]2[C@@H](CO)N3CCCCN(C(=O)Nc4ccccc4F)C[C@H]23)cc1` gave Vaccinia stage -3 and Vaccinia stage Venus -8.
`Cc1noc(C)c1NC(=O)Nc1cccc2c1O[C@@H](CN(C)Cc1ccc3c(c1)OCO3)[C@@H](C)CN([C@H](C)CO)C2=O` gave Vaccinia stage 21 and Vaccinia stage Venus 19.
`Cc1ccc(S(=O)(=O)N2C[C@@H](O)COC[C@H]3O[C@H](CC(=O)N[C@H]4CCN(Cc5ccccc5)C4)CC[C@@H]32)cc1` gave Vaccinia stage -15 and Vaccinia stage Venus -14.
COc1ccc(S(=O)(=O)N(C)C[C@@H]2Oc3ccc(NS(=O)(=O)c4ccc(C)cc4)cc3C(=O)N([C@H](C)CO)C[C@H]2C)cc1 was read as Vaccinia stage -3 and Vaccinia stage Venus 9.
C[C@@H]1CN([C@@H](C)CO)C(=O)c2cc(NC(=O)Nc3ccc(C(F)(F)F)cc3)ccc2O[C@@H](C)CCCCO[C@H]1CN(C)Cc1ccncc1 was read as Vaccinia stage inconclusive.
C[C@H]1CN([C@@H](C)CO)C(=O)c2ccccc2-c2ccccc2CO[C@@H]1CN(C)S(=O)(=O)c1ccc(C#N)cc1 was read as Vaccinia stage 23 and Vaccinia stage Venus 20.
For CO[C@@H]1CC[C@@H]2CCOc3c(C#N)cccc3C(=O)N(C)C[C@@H](C)C(=O)N(C)C[C@H]1O2 the results were Vaccinia stage 11 and Vaccinia stage Venus -6.
Screening C[C@@H]1CN([C@@H](C)CO)C(=O)c2cccc(NC(=O)c3ccc(-c4nccs4)cc3)c2O[C@@H]1CN(C)Cc1ccc(Oc2ccccc2)cc1 returned Vaccinia stage -24 and Vaccinia stage Venus -22.
Screening O=C(NCC[C@@H]1CC[C@@H](NS(=O)(=O)c2cccc(Cl)c2)[C@H](CO)O1)c1cnccn1 returned Vaccinia stage 7 and Vaccinia stage Venus 15.
C[C@@H]1CN([C@@H](C)CO)C(=O)c2cccc(NC(=O)C3CC3)c2O[C@H]1CN(C)S(=O)(=O)c1cccs1 was read as Vaccinia stage 9 and Vaccinia stage Venus 7.
C[C@H]1CN([C@@H](C)CO)C(=O)c2cc(Br)cnc2O[C@H]1CN(C)CC1CCCC1 was read as Vaccinia stage 16 and Vaccinia stage Venus 7.
For CCCC#Cc1ccc2c(c1)O[C@@H](CN(C)Cc1cccnc1)[C@H](C)CN([C@@H](C)CO)S2(=O)=O the results were Vaccinia stage inconclusive.
`COc1ccc(S(=O)(=O)Nc2ccc3c(c2)C(=O)N([C@H](C)CO)C[C@H](C)[C@@H](CN(C)Cc2ccc(C(=O)O)cc2)OCCCC[C@H](C)O3)cc1` gave Vaccinia stage 19 and Vaccinia stage Venus 12.
For CCCNC(=O)N1CC(=O)N2[C@H](C1)[C@@H](c1ccc(-c3ccc(C)cc3)cc1)[C@@H]2CO the results were Vaccinia stage -8 and Vaccinia stage Venus -2.
For O=C(C[C@@H]1C=C[C@@H](NC(=O)Nc2ccccc2F)[C@H](CO)O1)NCc1ccc(-c2ccccc2)cc1 the results were Vaccinia stage 0 and Vaccinia stage Venus 1.
CC=Cc1ccc2n(c1=O)C[C@@H]1[C@@H](CO)[C@H](C(=O)N(C)C)[C@H]2N1S(=O)(=O)c1ccccc1C (mixture of isomers) was read as Vaccinia stage 7 and Vaccinia stage Venus 2.
Screening C[C@@H]1CN([C@@H](C)CO)C(=O)c2cc(NC(=O)CCC(F)(F)F)ccc2O[C@@H]1CN(C)Cc1ccc(C(=O)Nc2ccccc2N)cc1 returned Vaccinia stage -8 and Vaccinia stage Venus -7.
`Cc1noc(C)c1S(=O)(=O)Nc1ccc2c(c1)CC(=O)N([C@H](C)CO)C[C@H](C)[C@@H](CN(C)S(=O)(=O)c1ccccc1)O2` gave Vaccinia stage 14 and Vaccinia stage Venus 4.
CC(C)NC(=O)N(C)C[C@H]1Oc2c(NC(=O)Nc3ccc(C(F)(F)F)cc3)cccc2C(=O)N([C@H](C)CO)C[C@H]1C was read as Vaccinia stage inconclusive.
Screening C[C@@H]1CCCCO[C@@H](CN(C)Cc2ccccc2)[C@@H](C)CN([C@H](C)CO)C(=O)c2cc(NS(=O)(=O)c3cccs3)ccc2O1 returned Vaccinia stage -8 and Vaccinia stage Venus -15.
Cc1cc(C(=O)Nc2cccc3c2O[C@@H](CN(C)Cc2ccc(Cl)c(Cl)c2)[C@H](C)CN([C@@H](C)CO)C3=O)n(C)n1 was read as Vaccinia stage inconclusive.
O=C(Cc1ccccn1)N1CC(=O)N2[C@H](C1)[C@H](c1ccc(C#CC3CCCC3)cc1)[C@@H]2CO was read as Vaccinia stage -10 and Vaccinia stage Venus -6.
Screening COCC(=O)Nc1ccc2c(c1)OC[C@@H](C)N(Cc1cccc(F)c1)C[C@H](C)[C@H](OC)CN(C)C2=O returned Vaccinia stage -9 and Vaccinia stage Venus -14.
Cc1ccc(S(=O)(=O)N(C)C[C@@H]2OCCCC[C@@H](C)Oc3ccc(NC(=O)Nc4ccccc4)cc3C(=O)N([C@H](C)CO)C[C@@H]2C)cc1 was read as Vaccinia stage 11 and Vaccinia stage Venus 8.
For COc1ccc(S(=O)(=O)Nc2cccc3c2O[C@@H](CN(C)C(=O)Nc2ccc4c(c2)OCO4)[C@@H](C)CN([C@H](C)CO)C3=O)cc1 the results were Vaccinia stage -2 and Vaccinia stage Venus -4.
C[C@H]1CN([C@@H](C)CO)C(=O)CCCn2nncc2CO[C@H]1CN(C)C(=O)Nc1ccc(C(F)(F)F)cc1 was read as Vaccinia stage 19 and Vaccinia stage Venus 16.
For O=C(NC1CCC1)[C@H]1[C@H](CO)[C@H]2Cn3c(ccc(-c4ccccc4)c3=O)[C@@H]1N2CC1CC1 the results were Vaccinia stage 16 and Vaccinia stage Venus 10.

Eight structures already listed, arranged by number of heavy atoms, largest number first.
`COc1ccc(S(=O)(=O)Nc2ccc3c(c2)C(=O)N([C@H](C)CO)C[C@H](C)[C@@H](CN(C)Cc2ccc(C(=O)O)cc2)OCCCC[C@H](C)O3)cc1` gave Vaccinia stage 19 and Vaccinia stage Venus 12.
C[C@@H]1CN([C@@H](C)CO)C(=O)c2cc(NC(=O)Nc3ccc(C(F)(F)F)cc3)ccc2O[C@@H](C)CCCCO[C@H]1CN(C)Cc1ccncc1 was read as Vaccinia stage inconclusive.
Cc1ccc(S(=O)(=O)N(C)C[C@@H]2OCCCC[C@@H](C)Oc3ccc(NC(=O)Nc4ccccc4)cc3C(=O)N([C@H](C)CO)C[C@@H]2C)cc1 was read as Vaccinia stage 11 and Vaccinia stage Venus 8.
Screening C[C@@H]1CN([C@@H](C)CO)C(=O)c2cc(NC(=O)CCC(F)(F)F)ccc2O[C@@H]1CN(C)Cc1ccc(C(=O)Nc2ccccc2N)cc1 returned Vaccinia stage -8 and Vaccinia stage Venus -7.
`Cc1noc(C)c1NC(=O)Nc1cccc2c1O[C@@H](CN(C)Cc1ccc3c(c1)OCO3)[C@@H](C)CN([C@H](C)CO)C2=O` gave Vaccinia stage 21 and Vaccinia stage Venus 19.
For O=C(C[C@@H]1C=C[C@@H](NC(=O)Nc2ccccc2F)[C@H](CO)O1)NCc1ccc(-c2ccccc2)cc1 the results were Vaccinia stage 0 and Vaccinia stage Venus 1.
CC=Cc1ccc2n(c1=O)C[C@@H]1[C@@H](CO)[C@H](C(=O)N(C)C)[C@H]2N1S(=O)(=O)c1ccccc1C (mixture of isomers) was read as Vaccinia stage 7 and Vaccinia stage Venus 2.
`C/C=C/c1ccc([C@H]2[C@@H](CO)N3CCCCN(C(=O)Nc4ccccc4F)C[C@H]23)cc1` gave Vaccinia stage -3 and Vaccinia stage Venus -8.

Next compounds follow.
Screening CC(C)C#Cc1cnc2c(c1)C(=O)N([C@H](C)CO)C[C@@H](C)[C@H](CN(C)C(=O)c1ccc3c(c1)OCO3)O2 returned Vaccinia stage -1 and Vaccinia stage Venus 10.
CNC[C@@H]1Oc2ccc(NC(=O)Cn3cnnn3)cc2CC(=O)N([C@H](C)CO)C[C@H]1C was read as Vaccinia stage 10 and Vaccinia stage Venus 1.
CO[C@@H]1CN(C)C(=O)c2cc(NC(=O)CC(F)(F)F)ccc2OC[C@H](C)NC[C@H]1C was read as Vaccinia stage 12 and Vaccinia stage Venus 27.
For CN(C)CC(=O)N1[C@@H](C#N)[C@H](c2ccc(C#CC3CC3)cc2)[C@@H]1CO the results were Vaccinia stage 16 and Vaccinia stage Venus 5.
`C[C@@H]1CN([C@@H](C)CO)C(=O)c2cc(-c3cccnc3)cnc2O[C@H]1CN(C)Cc1ccc(Oc2ccccc2)cc1` gave Vaccinia stage inconclusive.
C[C@@H]1CN([C@H](C)CO)C(=O)c2cc(-c3ccc(C(=O)N(C)C)cc3)cnc2O[C@@H]1CN(C)C(=O)C1CC1 was read as Vaccinia stage 0 and Vaccinia stage Venus 3.
C[C@@H]1CN([C@H](C)CO)C(=O)c2cc(NS(=O)(=O)c3cn(C)cn3)ccc2O[C@@H](C)CCCCO[C@H]1CN(C)S(=O)(=O)c1cn(C)cn1 was read as Vaccinia stage 25 and Vaccinia stage Venus 19.
Screening COc1cccc(S(=O)(=O)N(C)C[C@@H]2Oc3ncc(C#Cc4cccc(F)c4)cc3C(=O)N([C@H](C)CO)C[C@@H]2C)c1 returned Vaccinia stage inconclusive.
COC(=O)C[C@H]1CC[C@@H]2[C@H](COC[C@H](O)CN2S(=O)(=O)c2ccccc2OC)O1 was read as Vaccinia stage 1 and Vaccinia stage Venus 3.
For C[C@H](CO)N1C[C@H](C)[C@@H](CN(C)Cc2ccc3c(c2)OCO3)Oc2ccc(NC(=O)CCC(F)(F)F)cc2CC1=O the results were Vaccinia stage -18 and Vaccinia stage Venus -20.
For C[C@H]1CN([C@@H](C)CO)C(=O)c2cc(NC(=O)Nc3ccc(F)cc3)ccc2O[C@@H]1CN(C)S(=O)(=O)c1ccc(Cl)cc1 the results were Vaccinia stage -14 and Vaccinia stage Venus -7.
`Cc1noc(C)c1NC(=O)Nc1ccc2c(c1)C(=O)N([C@H](C)CO)C[C@@H](C)[C@@H](CN(C)S(=O)(=O)c1ccc(F)cc1)O2` gave Vaccinia stage -2 and Vaccinia stage Venus -6.
COc1ccc(S(=O)(=O)N(C)C[C@@H]2Oc3ccc(NC(=O)Nc4ccccc4)cc3CC(=O)N([C@@H](C)CO)C[C@@H]2C)cc1 was read as Vaccinia stage -33 and Vaccinia stage Venus -25.
COc1ccc(S(=O)(=O)Nc2ccc3c(c2)C(=O)N([C@H](C)CO)C[C@@H](C)[C@H](CN(C)Cc2ccc(-c4ccccc4)cc2)O3)cc1 was read as Vaccinia stage -13 and Vaccinia stage Venus 1.
For COc1ccc(S(=O)(=O)Nc2ccc3c(c2)CC(=O)N([C@@H](C)CO)C[C@H](C)[C@H](CN(C)Cc2ccc(C(F)(F)F)cc2)O3)cc1 the results were Vaccinia stage inconclusive.
For CCNC(=O)C[C@@H]1CC[C@@H]2[C@H](COc3ccc(NC(=O)c4cscn4)cc3C(=O)N2C)O1 the results were Vaccinia stage 9 and Vaccinia stage Venus 5.
Screening C[C@@H]1CCCCO[C@@H](CN(C)C(=O)Cc2ccccc2)[C@H](C)CN([C@H](C)CO)C(=O)c2cc(NS(=O)(=O)c3cccs3)ccc2O1 returned Vaccinia stage -22 and Vaccinia stage Venus -21.
C[C@@H]1CN([C@@H](C)CO)C(=O)Cc2cc(NC(=O)Nc3ccc(F)cc3)ccc2O[C@H]1CN(C)C was read as Vaccinia stage 3 and Vaccinia stage Venus -6.
Screening O=C(C[C@H]1C=C[C@H](NC(=O)c2cccc(F)c2)[C@@H](CO)O1)Nc1nccs1 returned Vaccinia stage 16 and Vaccinia stage Venus 13.
`C[C@H](CO)N1C[C@H](C)[C@@H](CN(C)S(=O)(=O)c2ccccc2)OCCCC[C@H](C)Oc2ccc(NS(=O)(=O)c3ccc(F)cc3)cc2C1=O` gave Vaccinia stage inconclusive.
`C[C@@H]1CCCCO[C@@H](CN(C)CC2CCCCC2)[C@H](C)CN([C@@H](C)CO)C(=O)c2cc(NC(=O)Nc3ccccc3)ccc2O1` gave Vaccinia stage inconclusive.
CN(C)C(=O)C[C@@H]1C[C@H]2c3cc(NC(=O)c4cccnc4)ccc3O[C@H]2[C@H](CO)O1 was read as Vaccinia stage -7 and Vaccinia stage Venus -6.
CO[C@H]1CN(C)C(=O)c2cc(NS(=O)(=O)c3cn(C)cn3)ccc2OC[C@H](C)N(Cc2cccc(F)c2)C[C@@H]1C was read as Vaccinia stage 6 and Vaccinia stage Venus -1.
CCCC#Cc1ccc2c(c1)O[C@@H](CN(C)CC1CCOCC1)[C@@H](C)CN([C@@H](C)CO)S2(=O)=O was read as Vaccinia stage -15 and Vaccinia stage Venus -18.
`COc1ccc(S(=O)(=O)Nc2cccc3c2O[C@@H](CN(C)Cc2ccc(C(=O)Nc4ccccc4N)cc2)[C@@H](C)CN([C@H](C)CO)C3=O)cc1` gave Vaccinia stage 1 and Vaccinia stage Venus -1.
For CC(C)NC(=O)N(C)C[C@H]1OCCCC[C@@H](C)Oc2ccc(NC(=O)CCC(F)(F)F)cc2C(=O)N([C@@H](C)CO)C[C@H]1C the results were Vaccinia stage 28 and Vaccinia stage Venus 7.
C[C@@H]1CN([C@H](C)CO)C(=O)c2cccc(N(C)C)c2O[C@H]1CN(C)C(=O)Nc1ccc(F)cc1 was read as Vaccinia stage 19 and Vaccinia stage Venus 5.
For C[C@H]1CN([C@@H](C)CO)C(=O)c2cccc(NC(=O)Nc3cccc4ccccc34)c2O[C@H]1CN(C)C(=O)Nc1ccccc1 the results were Vaccinia stage -13 and Vaccinia stage Venus -3.
COC(=O)[C@]1(CCC(=O)OC(C)(C)C)N=C(c2ccc(OCCCO)cc2)O[C@@H]1c1ccccc1 was read as Vaccinia stage inconclusive.
